HNF4A DNA FP – change in binding of human HNF4A to DNA, primary screen, biochemical, fluorescence polarization, FITC-DNA; Hepatocyte nuclear factor 4-alpha (Homo sapiens), P41235; 1 h; activity change, % at 10 µM; actives 0.3% (n = 360,000); AID 1224865, 2016; in the data active = activity change above about 30%, passing the limit was not always enough;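 also: controls were the assay level and a saturating level of protein; the project sought stronger binding though the title names inhibitors; some compounds called inactive have numbers as strong as hits; positive values seem to mean higher polarization but the record does not say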
FGF22 binding – binders of human FGF22 protein, primary screen, FGF22 synaptogenesis inhibitor project, biophysical, thermal shift, single point; actives 1.5% (n = 340,000); recombinant FGF22 thermal shift, SYPRO orange fluorescence; percent of sucrose octasulfate shift, DMSO zero; calls only at 9.99 µM;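 active = melting point raised past a set limit in the mean and every replicate; three in four hits are not shown here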
Target sequence (Q9HCT0 whole entry, looked up): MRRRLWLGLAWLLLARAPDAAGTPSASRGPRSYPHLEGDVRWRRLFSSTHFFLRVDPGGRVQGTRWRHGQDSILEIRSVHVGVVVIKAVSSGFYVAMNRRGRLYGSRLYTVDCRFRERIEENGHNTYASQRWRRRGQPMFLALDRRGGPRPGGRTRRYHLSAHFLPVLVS
Ecoli growth – E. coli growth inhibition, primary screen, OD600. Escherichia coli growth, 23 h; hits give low values. OD600 absorbance (test concentration not listed). actives 0.21% (n = 330,000);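 active = OD600 absorbance below the run mean of sample wells minus 3.6 SD, in any replicate, cut at about 0.56 in these data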;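 also: stock transfer was 300 nL into about 60 µL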
ALR inh – inhibitors of human ALR sulfhydryl oxidase, primary screen, biochemical, H2O2 detection, HRP-luminol luminescence, single point. actives 3.8% (n = 290,000). inhibition, % (no concentration beside the values). FAD-linked sulfhydryl oxidase ALR (Homo sapiens), P55789. purified ALR, DTT oxidation. AID 485317, 2010;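 active = mean and each replicate at 75% or more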;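 also: stock transfer was 7.5 nL into about 7.5 µL; 0% = neutral wells and 100% = wells with inactivated enzyme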
Target sequence (P55789 whole entry, looked up): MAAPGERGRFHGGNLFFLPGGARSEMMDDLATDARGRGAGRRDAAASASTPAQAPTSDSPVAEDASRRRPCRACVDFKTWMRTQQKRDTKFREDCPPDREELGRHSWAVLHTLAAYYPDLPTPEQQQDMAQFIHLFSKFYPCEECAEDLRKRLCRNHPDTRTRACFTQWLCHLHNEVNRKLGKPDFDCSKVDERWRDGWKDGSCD
Vif TR-FRET – inhibitors of Vif binding to APOBEC3G peptide, primary screen, biochemical, TR-FRET, GST-Vif 1-94, biotin-A3G peptide, dose response retest (AID 1117319); Virion infectivity factor (Human immunodeficiency virus type 1 group M subtype B (isolate …; TR-FRET GST-Vif / biotin-A3G peptide binding; higher % means a stronger effect; test concentration not given here; strong numbers were not always called active; actives 0.57% (n = 260,000); inhibition, %, or IC50 in µM where a hit was titrated;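 active = above the screen mean plus three standard deviations and confirmed in dose response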;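 also: Vif residues 1-94 fused to GST binding biotinylated APOBEC3G peptide 110-148; 0% = full assay without inhibitor and 100% = GST in place of GST-Vif; retest series ran down from 100 µM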
AF4-AF9 inh – inhibitors of AF4 peptide binding to AF9, primary screen, biochemical, AlphaScreen, biotin-AF4 peptide, FLAG-AF9, single point; Protein AF-9 (Homo sapiens), P42568; inhibition, % at 10 µM; actives 0.47% (n = 350,000);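 active = every replicate reaching a set inhibition limit, whatever the replicate mean, cut at about 25% in these data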;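 also: 0% = plate neutral control median and 100% = total signal loss; the record names both 10 and 1 µM as test concentration; the first replicate is given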
Target sequence (P42568 whole entry, looked up): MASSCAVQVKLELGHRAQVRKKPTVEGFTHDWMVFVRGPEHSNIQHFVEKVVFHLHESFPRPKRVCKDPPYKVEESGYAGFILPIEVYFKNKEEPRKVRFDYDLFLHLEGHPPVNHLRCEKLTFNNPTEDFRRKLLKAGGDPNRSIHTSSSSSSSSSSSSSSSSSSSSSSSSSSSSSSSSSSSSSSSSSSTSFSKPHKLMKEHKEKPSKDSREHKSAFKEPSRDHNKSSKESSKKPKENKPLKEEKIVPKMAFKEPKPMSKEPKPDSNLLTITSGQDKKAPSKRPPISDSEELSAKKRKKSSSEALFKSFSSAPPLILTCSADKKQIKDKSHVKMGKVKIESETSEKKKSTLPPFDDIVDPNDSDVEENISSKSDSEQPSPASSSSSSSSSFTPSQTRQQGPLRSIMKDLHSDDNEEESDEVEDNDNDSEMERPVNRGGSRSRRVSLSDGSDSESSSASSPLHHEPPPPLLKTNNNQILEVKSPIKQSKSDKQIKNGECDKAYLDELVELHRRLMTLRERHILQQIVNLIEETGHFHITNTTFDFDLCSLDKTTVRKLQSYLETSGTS
rRNA inh HTS – reduced GFP signal of wild-type E. coli, primary screen, bacterial rRNA inhibitor project, GFP/RFP fluorescence, OD600, single point; E. coli WT GFP vs humanized-ribosome RFP mutants, 24 h; hits give low values; DMSO median 0, no signal -100; GFP signal change (wild-type ribosome), % (no concentration beside the values); actives 1.6% (n = 350,000); AID 720706, 2013;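 active = significant combined selectivity score with lowered wild-type GFP, culture density cut under 30%, mutant RFP and density less affected; inactive = any of these conditions unmet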; also: one replicate is shown; some compounds called inactive have numbers as strong as hits
rRNA inh HTS OD600 – second read-out of rRNA inh HTS, no call of its own (marks repeat the call); OD600 change, %; measured here: OD600 growth;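 optical density of the mix in the first replicate; 0 = DMSO median and -100 = no signal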
rRNA inh HTS RFP – second read-out of rRNA inh HTS, no call of its own (marks repeat the call); RFP signal change, %; measured here: RFP humanized mutant strains;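 first replicate; 0 = DMSO median and -100 = no signal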
Starred values were filed as active, the others as inactive; i = inactive; . = not tested or not shown; & = joins results of further samples.

SMILES | HNF4A DNA FP | FGF22 binding | Ecoli growth | ALR inh | Vif TR-FRET | AF4-AF9 inh | rRNA inh HTS | rRNA inh HTS OD600 | rRNA inh HTS RFP
CCOc1ccc(NC(=O)CCNC(=O)Cn2ccc3ccccc3c2=O)cc1 | 3.0 | . | 0.68 | -1 | . | . | . | . | .
O=C(CN1C(=O)CCS(=O)(=O)c2ccccc21)NCCc1ccccc1 | 0.1 | i | 0.73 | -2 | . | 2.2 | 2 | 10 | -3.2
N#Cc1ccc(NC(=O)COC(=O)c2cccnc2Cl)cc1 | -1.7 | i | 0.62 | . | . | -2.5 | -1 | 7 | -1.5
CC(C)(C)NCCCOc1ccc(Cl)cc1C(C)(C)C | . | . | 0.65 | -23 | -2% | . | . | . | .
NC(=O)CSc1nnc(Cn2c(=O)sc3ccccc32)n1-c1cccc(Cl)c1 | -1.3 | . | 0.7 | -4 | 7% | . | . | . | .
CCC(C)C(NC(N)=O)C(=O)Nc1ccc(S(=O)(=O)Nc2ccc(OC)cc2)cc1 (centres undefined) | -3.1 | i | 0.7 | 7 | . | -5.4 | -4 | -14 | 2.3
O=C(N[C@H]1CC[C@@H](CCn2cc(-c3ccccn3)nn2)O[C@H]1CO)c1ccc(F)cc1 | . | i | . | . | . | -1.6 | 2 | 8 | -1.6
C[C@@H]1CN([C@@H](C)CO)C(=O)Cc2cc(N(C)C)ccc2O[C@H]1CN(C)S(=O)(=O)c1ccccc1 | . | i | . | . | . | 5.7 | 2 | 4 | 0.4
CCc1ccc(NC(=O)N(Cc2cccnc2)Cc2ccco2)cc1 | 4.5 | . | 0.7 | -1 | 19% | . | . | . | .
O=c1oc2ccccc2n1CCn1c2ccccc2c2nc3ccccc3nc21 | -1.4 | . | . | -6 | 4% | . | . | . | .
Cc1sc(N)c(C(=O)c2ccccc2Cl)c1C | 2.1 | i | 0.67 | 99* | . | 4.9 | -27 | -32 | -0.8
CS(=O)(=O)c1ccc(S(=O)(=O)N2CCN(C(=O)C(O)c3ccccc3)CC2)cc1 (centres undefined) | 2.4 | i | . | . | . | 2.2 | 23 | 8 | 3.9
COCC(=O)N(C)C[C@H]1Oc2ncc(-c3ccccc3OC)cc2C(=O)N([C@@H](C)CO)C[C@@H]1C | . | i | . | . | . | -17 | 1 | 3 | -3.3
COCC(=O)N(C)C[C@@H]1Oc2cc(-c3ccncc3)ccc2S(=O)(=O)N([C@@H](C)CO)C[C@@H]1C | . | i | . | . | . | -4.9 | 6 | 1 | 3.3
CCOC(=O)C1(Cc2cccc(F)c2)CCN(Cc2cnc(C)s2)CC1 | -1.3 | i | 0.61 | 1 | . | 1.4 | -10 | -17 | -5.4
COc1ccccc1CCN=C(N)NS(=O)(=O)c1ccc(F)cc1 | 2.9 | i | 0.68 | -2 | -3% | 1.7 | 1 | -3 | 1.9
c1ccc2c(c1)ccn2CCCN1CCCCC1 | 2.1 | i | 0.68 | . | -8% | -4.2 | 9 | -6 | -1.2
C[C@H]1CN([C@@H](C)CO)C(=O)CCCn2nncc2CO[C@H]1CN(C)C(=O)Nc1ccccc1C(F)(F)F | . | i | . | . | . | -0.4 | -2 | 3 | -0.9
O=C(CSc1ncnc2c1cnn2Cc1ccccc1)Nc1ccc2c(c1)OCCO2 | 1.5 | . | 0.73 | -27 | -4% | . | . | . | .
CC1=C(C(=O)OC(C)C)C(c2ccsc2)NC(=O)N1C (centres undefined) | -0.2 | . | 0.72 | . | -11% | . | . | . | .
O=C(CCc1ccccc1)Nc1cccnc1Cl | 0.3 | i | 0.67 | 2 | -5% | 0.2 | . | . | .
c1ccc2[nH]c(-c3ccnc4ccccc34)nc2c1 | 1.1&1.4 | . | 0.68&0.68 | -4&-3 | 24%&15% | . | . | . | .
COCC#Cc1ccc([C@@H]2[C@H]3CN(S(=O)(=O)c4ccccc4F)CCCCN3[C@H]2CO)cc1 | . | i | . | . | . | -2.6 | -2 | -10 | 1.1
O=C(CCC(=O)OCc1ccc(Cl)cc1)Nc1cccc([N+](=O)[O-])c1 | -0.8 | . | 0.65 | -11 | -1% | . | . | . | .
COC(=O)c1ccccc1NC(=O)c1cccs1 | 1.9 | . | 0.71 | -4 | 10% | . | . | . | .
Continuation.
SMILES | HNF4A DNA FP | FGF22 binding | Ecoli growth | ALR inh | Vif TR-FRET | AF4-AF9 inh | rRNA inh HTS | rRNA inh HTS OD600 | rRNA inh HTS RFP
CN1CC(=O)N=C1N | 0.5&-4.6 | i | 0.67&0.63 | 7&-9 | . | -1.2&-2.2 | . | . | .
CCNC(=O)C[C@H]1CC[C@@H]2[C@H](COC[C@@H](O)CN2C(=O)c2cccnc2)O1 | . | i | . | . | . | -1.2 | -1 | -3 | 16
COCCCN1CC(=O)N2Cc3[nH]c4ccccc4c3C[C@H]2C1=O | -1.1 | i | 0.68 | -3 | -4% | -0.4 | 15 | 12 | 9.7
Cc1ccccc1N=C1c2ccccc2C(=O)C1[N+](=O)[O-] (centres undefined) | -2.8 | . | 0.67 | 5 | 21% | -16 | 0 | -8 | 1.5
O=C(C[C@@H]1CC[C@@H]2[C@H](COC[C@@H](O)CN2Cc2nccs2)O1)NCc1ccc(F)cc1 | . | i | . | . | . | -3.3 | -1 | 5 | -4.2
CCC(c1nnnn1CCOC)N1CCN(c2cccc(C(F)(F)F)c2)CC1 (centres undefined) | 2.9 | . | 0.64 | . | 8% | . | . | . | .
c1ccc(Oc2nnc(-c3cccs3)c3ccccc23)cc1 | 4.2 | i | 0.72 | -6 | -86% | 0.9 | 15 | 3 | 3.9
CC1=NNC(=O)C1CC(=O)N/N=C/c1sccc1C (centres undefined) | 5.0 | i | . | . | -10% | -1.4 | 15 | 15 | 1.2
CC(=O)N1CCN(S(=O)(=O)c2ccc3c(c2)CC(=O)N3)CC1 | -2.1 | i | 0.66 | 58 | -13% | 3.9 | 7 | 18 | 1.4
COc1ccc(CNC(=O)C[C@H]2CC[C@H](NC(=O)c3ccc4c(c3)OCO4)[C@@H](CO)O2)cc1 | . | i | . | . | . | -0.1 | 4 | 2 | -0.9
C[C@H]1CN([C@@H](C)CO)S(=O)(=O)c2ccc(-c3ccncc3)cc2O[C@@H]1CN(C)C(=O)CC1CC1 | . | i | . | . | . | 1.2 | -4 | -4 | -1.2
Cc1ccc(C)c(NS(=O)(=O)c2c(C)ccc3nsnc23)c1 | -0.7 | . | 0.74 | -4 | -5% | . | . | . | .
CCn1c(SCCOc2ccc(OC)cc2)nnc1C(CO)NC(=O)c1ccc(OC)cc1 (centres undefined) | -3.5 | . | 0.74 | -9 | 6% | . | . | . | .
O=[N+]([O-])c1ccc(/C=N/N=C/c2ccc([N+](=O)[O-])o2)o1 | -15 | . | . | . | . | -0.2 | 10 | 5 | 5.0
CC(=O)c1sc(NC(=O)COc2ccc(C(C)C)c(C)c2)nc1C | -1.5 | i | 0.73 | . | 0% | -2.8 | 4 | -6 | -0.3
O=C(c1ccc([N+](=O)[O-])cc1Cl)N1CCN(Cc2ccccc2)CC1 | -4.0 | i | . | . | 2% | 5.7 | 11 | 13 | 0.2
COc1ccc(S(=O)(=O)N2CC3CCCN3c3cc(C(F)(F)F)ccc32)cc1 (centres undefined) | 2.8 | . | 0.73 | -16 | -6% | . | . | . | .
COC(C[C@@H](O)C[C@H](O)[C@@H](C)OCc1ccccc1)OC | 3.8 | i | . | . | -4% | . | 1 | 7 | 7.0
Cc1nn(-c2ccccc2)c(C)c1NC(=O)COC(=O)Cc1cccc(C(F)(F)F)c1 | -2.7 | i | 0.68 | 5 | . | -0.6 | 0 | 11 | 0.5
CC(C)N(Cc1nc(-c2ccc(Cl)cc2)no1)C(=O)CN(C)S(=O)(=O)c1ccc(Cl)cc1 | 7.3 | i | 0.69 | -8 | 10%&-4% | -17 | 2 | -17 | -0.6
O=C(NCC(Cl)c1ccc2ccccc2c1)c1c(F)cccc1F (centres undefined) | 0.4 | i | 0.68 | -4 | -2% | -0.8 | -8 | -4 | -0.2
CC1=C(C#N)CCC(=O)N1Cc1ccc(C)cc1 | 4.4 | . | 0.76 | 2 | 19% | . | . | . | .
C[C@@H]1CN([C@H](C)CO)C(=O)c2cccc(NC(=O)CCCCCC(=O)Nc3ccccc3N)c2O[C@H]1CN(C)S(=O)(=O)c1ccc(Cl)cc1 | . | i | . | . | . | -13 | -5 | -6 | 1.5
CCOC(=O)c1csc(NC(=O)CSc2nnnn2-c2cccc(OC)c2)n1 | 0.3 | . | 0.76 | 1 | 7% | . | . | . | .
C=C(C)C(=O)Nc1nnc(-c2ccccc2C)s1 | 4.7 | i | 0.7 | . | -4% | -1.2 | -4 | -3 | -1.4
Further results follow:
SMILES | HNF4A DNA FP | FGF22 binding | Ecoli growth | ALR inh | Vif TR-FRET | AF4-AF9 inh | rRNA inh HTS | rRNA inh HTS OD600 | rRNA inh HTS RFP
CCCNC(=O)N(C)C[C@@H]1Oc2cc(C3=CCCC3)ccc2S(=O)(=O)N([C@@H](C)CO)C[C@@H]1C | . | i | . | . | . | -1.7 | -3 | -15 | -0.2
C/C(=N\NC(=O)C1CC1)c1ccc2c(c1)OCCO2 | 5.2 | i | . | -1 | 13% | 0.3 | 17 | 16 | 2.5
C[C@@H]1CN([C@H](C)CO)C(=O)c2cc(-c3ccc(F)cc3)cnc2O[C@@H]1CN(C)Cc1cccnc1 | . | i | . | . | . | -15 | -1 | 5 | -0.3
O=C(Nc1nnc(COc2ccc(Br)cc2)s1)c1ccco1 | 4.6 | i | 0.71 | . | . | -2.0 | -5 | 11 | 2.7
N#Cc1cc2c(nc1SCc1ccc(Cl)nc1)CCCCC2 | -2.6 | i | 0.66 | -4 | 2% | 2.6 | -15 | -21 | -4.3
Cc1ccnc(N2CCN(C(=O)CSc3nc4ccccc4nc3N3CCC(C)CC3)CC2)c1 | -3.0 | . | 0.72 | -3 | 4% | 1.3 | -2 | -6 | 0.9
C[C@@H]1CN([C@@H](C)CO)C(=O)c2cc(NC(=O)c3ccccc3)ccc2O[C@@H](C)CCCCO[C@@H]1CN(C)C(=O)Nc1cccc2ccccc12 | . | i | . | . | . | -3.4 | -4 | -7 | -3.5
CCOC(=O)C(C)Sc1nnc(Cc2cc(=O)[nH]c(=O)[nH]2)n1-c1cccc(OC)c1 (centres undefined) | -0.7 | i | 0.76 | -15 | 0% | 0.2 | 2 | 3 | -7.4
Cc1cccc(NC(=O)C2Cc3ccccc3CN2C(=O)OCc2ccccc2)c1C (centres undefined) | 2.1 | i | 0.73 | 2 | . | -1.6 | -9 | -12 | 8.2
C[C@@H]1CN([C@H](C)CO)C(=O)Cc2cc(NC(=O)Nc3ccc(F)cc3)ccc2O[C@H]1CN(C)S(=O)(=O)c1cccs1 | . | i | . | . | . | 2.6 | 0 | -1 | 2.5
Cc1ccc(S(=O)(=O)Nc2cccc(C(=O)NCc3ccccn3)c2)cc1F | -2.0 | i | 0.71 | -2 | . | 2.2 | -2 | -4 | 0.6

2 records drawn at random from those above:
SMILES | HNF4A DNA FP | FGF22 binding | Ecoli growth | ALR inh | Vif TR-FRET | AF4-AF9 inh | rRNA inh HTS | rRNA inh HTS OD600 | rRNA inh HTS RFP
C/C(=N\NC(=O)C1CC1)c1ccc2c(c1)OCCO2 | 5.2 | i | . | -1 | 13% | 0.3 | 17 | 16 | 2.5
C[C@@H]1CN([C@@H](C)CO)C(=O)c2cc(NC(=O)c3ccccc3)ccc2O[C@@H](C)CCCCO[C@@H]1CN(C)C(=O)Nc1cccc2ccccc12 | . | i | . | . | . | -3.4 | -4 | -7 | -3.5

Bioassay records (PubChem)

A portion of the library (hit frequency here may not be typical).
